From PubChem BioAssay
BJeLR viability = kills HRASV12-expressing BJeLR cells; 300,000 tested, 0.17% active; BJeLR (HRASV12) viability, CellTiter-Glo ATP luminescence, 48 h; reference of the scale not given here; inhibition, % (concentration not given with the values);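 active = replicate mean above 50%; inconclusive = above 50% but judged a plate artefact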;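 note: 50 nL library stock added to about 25 µL; numbers are from one replicate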
PrP UTR inh = inhibition of PrP 5' UTR reporter expression. cell-based PrP 5' UTR mRNA reporter, plate reader. 340,000 tested, 0.35% active. AID 488862. inhibition, % (test concentration not listed);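 active = every replicate at 50% or more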;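 note: 0 = median of the neutral control wells; tested in H4 reporter cells; numbers are from one replicate; inactives centre near -14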
Bead autofluor = compound fluorescence in toxin protease inhibitor counterscreen; compound autofluorescence counterscreen, microsphere flow cytometry; hits give high values; fluorescence intensity (test concentration not listed); 360,000 tested, 3.1% active; AID 624483;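 active = at least 3 SD above the mean of all compounds, about 16000 in these data; inconclusive = too few beads counted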;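 note: 100 nL of 1 mM stock went into each well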
Sa RN4220 lethal = S. aureus RN4220 growth inhibition; OD600, 16 h; inhibition, % (no concentration beside the values); 330,000 tested, 0.33% active; AID 1259311;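 active = z-score of -3 or lower and OD600 up to 0.18 on both plates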;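 note: plate controls were untreated cells for no effect and reference antibiotic for full effect; stock transfer was 100 nL into about 80 µL; one replicate is shown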
Mtb hypoxia rep = Mtb hypoxia fluorescent reporter inhibition. M. tuberculosis hypoxia-regulated fluorescent reporter, fluorescence. fluorescence inhibition, % (no concentration beside the values). 300,000 tested, 0.1% active;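 active = 35 to 45% if threefold the growth effect, above 45% if 1.5-fold the growth effect; inactive = the rest, general growth blockers included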;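 note: wells of about 50 µL received 100 nL stock; 0% = vehicle wells and 100% = reference inhibitor wells; whole bacteria with a GFP reporter of the hypoxia response; strong numbers were not always called active; many hits fall short of the cut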
Sa ugtP lethal = growth inhibition of S. aureus ugtP deletion strain | growth inhibition, % (test concentration not listed) | AID 1259309 | S. aureus RN4220 ugtP deletion, OD600 growth, 16 h; some inactives read as strong as hits | 330,000 tested, 0.54% active;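 active = z-score under -3 and OD600 up to 0.15 on both plates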;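 note: plate controls were untreated wells for no effect and antibiotic for full effect; wells of about 80 µL received 100 nL stock; the first replicate is given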
Mtb hypoxia rep growth = further read-out of Mtb hypoxia rep, marked with its call; growth inhibition, %; measured here: M. tuberculosis growth (absorbance);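 0% = vehicle and 100% = reference antibiotic; read after six days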
* = called active by the depositor; u = inconclusive; x = no result given.

Preview (three entries):
SMILES | BJeLR viability | PrP UTR inh | Bead autofluor | Sa RN4220 lethal | Mtb hypoxia rep | Mtb hypoxia rep growth | Sa ugtP lethal
O=C(NC1CONC1=O)OCC(Cl)(Cl)Cl (stereo not drawn) | -16 | -1 | 2053 | 13 | 8 | 3 | -4
O=C(NCc1ccco1)C1CCCCN1S(=O)(=O)c1ccc(F)cc1 (stereo not drawn) | -6 | -7 | 8649 | 2.9 | 3 | 15 | -2
Cc1ccc(NC(=O)COC(=O)c2ccc(CN3CCCC3=O)cc2)c(Cl)c1 | x | -16 | 3332 | 2.8 | -1 | 10 | 1

The list itself, repeating the preview:
SMILES | BJeLR viability | PrP UTR inh | Bead autofluor | Sa RN4220 lethal | Mtb hypoxia rep | Mtb hypoxia rep growth | Sa ugtP lethal
O=C(NC1CONC1=O)OCC(Cl)(Cl)Cl (stereo not drawn) | -16 | -1 | 2053 | 13 | 8 | 3 | -4
O=C(NCc1ccco1)C1CCCCN1S(=O)(=O)c1ccc(F)cc1 (stereo not drawn) | -6 | -7 | 8649 | 2.9 | 3 | 15 | -2
Cc1ccc(NC(=O)COC(=O)c2ccc(CN3CCCC3=O)cc2)c(Cl)c1 | x | -16 | 3332 | 2.8 | -1 | 10 | 1
CN=c1scc(C)n1N=Cc1ccc(O)c(O)c1O | x | x | x | 6.2 | 5 | 5 | -2
CCS(=O)(=O)c1nc(S(=O)(=O)c2ccc(C)cc2)c(N2CCN(C)CC2)s1 | -9 | -6 | 5300 | 0.9 | 6 | 5 | 2
CS(=O)(=O)N1CCN(c2ccc([N+](=O)[O-])c(N3CCOCC3)c2)CC1 | 4 | 5 | x | -16 | 9 | 8 | -6
CSc1nnc(NC(=O)CCc2ccccc2)s1 | 0 | -23 | 5897 | 1.7 | 3 | 2 | 0
CCOC(=O)CSc1ccc2nnc(CCNS(=O)(=O)c3ccccc3)n2n1 | 3 | -11 | 4562 | 0.9 | -5 | -3 | 5
COc1ccc(OCC(O)Cn2c(Nc3ccccc3)nc3c2c(=O)n(C)c(=O)n3C)cc1 (stereo not drawn) | 15 | -18 | 2775 | 5.6 | 9 | -1 | -5
CS(=O)(=O)N(Cc1ccc(Cl)cc1)c1ccc(C(=O)N/N=C/c2cc3ccccc3nc2Cl)cc1 | -3 | -75 | 2705 | x | x | x | x
COc1ccccc1NC(=O)c1ccccc1N(Cc1ccccc1)S(C)(=O)=O | 13 | 2 | 3564 | 7.2 | 2 | 7 | 9
CCOC(=O)c1ccc(NC(=O)N2CCCCCC2)cc1 | -5 | -86 | 6096 | -0.6 | 11 | 5 | 4
O=C(Nc1csc([N+](=O)[O-])c1)Nc1c(Cl)cccc1Cl | 1 | -10 | 2926 | 13 | -1 | 2 | 28
COC(=O)C1=C(c2ccccc2)CC2CCC1N2C(=O)N1CCC(O)CC1 (stereo not drawn) | x | x | x | -2.0 | 2 | 13 | -13
O=C(O)C1(Cc2nc3ccccc3[nH]2)CCCC1 | -5 | 14 | 2927 | 0.5 | 0 | -3 | 0
COc1cc2c(cc1NC(=O)c1ccccc1F)CCCC2 | -5 | -44 | 1984 | -3.8 | 1 | 10 | 19
COC(=O)c1sc(S(=O)(=O)N2CCC(C(N)=O)CC2)c(C(=O)OC)c1C | 3 | -3 | 3916 | 3.5 | 15 | 6 | -1
Cc1cc2c(c(Sc3ccccc3)n1)C(=O)OC2 | 0 | -11 | 24407* | 3.4 | 19 | 7 | -6
NC(=O)c1c(NC(=O)c2ccccc2F)sc2c1CCCC2 | -8 | -83 | 3438 | 1.1 | -4 | 5 | -11
O=C(NCc1ccco1)c1c[nH]c2ccc(S(=O)(=O)N3CCOCC3)cc2c1=O | x | -23 | 2424 | -5.6 | 2 | 2 | 5
COc1ccc(/C(O)=C2/C(=O)C(=O)N(CCN(C)C)C2c2ccccc2)cc1Cl (stereo not drawn) | 1 | -1 | 3324 | x | x | x | x
Cc1ccc2oc(=O)n(CCOc3ccccc3Cl)c2c1 | -2 | -4 | 5765 | -4.6 | 12 | 8 | -10
Cc1ccc(NC2CCCN(C(=O)CCc3ccncc3)C2)cc1C (stereo not drawn) | 7 | 9 | u | -2.2 | -10 | -2 | -6
CNC(=O)c1ccc(S(=O)(=O)c2ccc(Cl)cc2)c(NC(C)=O)c1 | 0 | -12 | 3594 | 1.5 | -1 | 4 | 9
CC(=O)c1ccc(NC(=O)CC(C)S(=O)(=O)c2ccc3c(c2)CCN3C(C)=O)cc1 (stereo not drawn) | 1 | -10 | 5634 | -0.7 | -2 | -8 | 5
O=C(c1ccccc1)c1ccc2c(c1)OCCOCCOCCOCCO2 | 2 | -10 | 5825 | 7.2 | 6 | 11 | 6
Cc1ccc(S(=O)(=O)Nc2cc(C)on2)cc1 | -10 | -13 | 5839 | 5.0 | 15 | -9 | -5
O=C(NC1CCCC1)C(c1ccc(O)cc1)N(CC1CCCO1)C(=O)C1COc2ccccc2O1 (stereo not drawn) | -6 | -36 | 6747 | 4.0 | 15 | 6 | 13
COc1ccc(C=O)c2[nH]c3c(Cl)ncnc3c12 | 22 | -11 | 3632 | 1.4 | -4 | 7 | 6
COc1ccc([N+](=O)[O-])cc1NC(=O)C(C)Sc1ccccc1 (stereo not drawn) | 20 | 2 | 2107 | 3.0 | 20 | 5 | 0
CNC(=S)N1CCn2cccc2C1c1cccnc1 (stereo not drawn) | -2 | -9 | 4485 | -3.1 | -8 | 6 | -3
CCC(=O)N(CC)c1nc(-c2ccc(OC)cc2)cs1 | 3 | -35 | 23376* | 3.6 | 5 | 11 | 29
Cc1cccc(C(=O)O/N=C(\N)Cc2ccc([N+](=O)[O-])cc2)c1 | -11 | -16 | 3068 | x | x | x | x
Cc1ccc(-c2cc(C#N)c(=O)n(Cc3c(Cl)cccc3Cl)c2)cc1 | 5 | -17 | 8112 | 11 | 5 | 6 | 2
COc1cc(/C=C(\C#N)c2nc3ccccc3[nH]2)cc(Br)c1OCc1ccccc1 | 7 | -30 | 10501 | 7.0 | 5 | 1 | 2
Nc1c(Cl)ncnc1NCCc1ccc(O)cc1 | 16 | -19 | 4115 | 2.3 | 13 | 8 | 3
N#CC(Cc1ccccc1OC(F)F)c1nc2ccccc2[nH]1 (stereo not drawn) | 4 | -20 | 2323 | 4.0 | 0 | -5 | 0
COC(=O)Cc1c(C)nc2nc(NCc3c(F)cccc3Cl)[nH]n2c1=O | 2 | -16 | 2820 | -4.3 | x | x | 2
O=C(NC1CCN(Cc2ccccc2)CC1)C1CCN(S(=O)(=O)c2cccc3nsnc23)CC1 | -2 | 1 | 4757 | -5.5 | -6 | -4 | 2
CN1C[C@@H](c2ccc(Cl)c(Cl)c2)[C@@]2(COc3ccccc3C2=O)[C@@]12C(=O)Nc1ccccc12 | x | x | x | -6.9 | 5 | 9 | -15
COc1ccc(-c2cc(=O)n(-c3ccc([N+](=O)[O-])cc3)[nH]2)cc1 | -9 | -7 | 2121 | 20 | 4 | 3 | 8
CCC(=O)NC(=S)Nc1ccc(NC(=O)c2ccc(Br)o2)cc1 | -3 | -29 | 2582 | -1.6 | x | x | 52
CCOC(=O)c1nc(C)sc1-c1ccnn1S(=O)(=O)c1ccccc1C(F)(F)F | 2 | -1 | 4453 | x | x | x | x
C#Cc1ccc([C@H]2C=C(C(=O)NCc3ccccc3)O[C@@H](OCC)[C@@H]2CCCO)cc1 | -7 | 7 | 3865 | x | x | x | x
NNc1ccc(Cc2ccc(Cl)cc2Cl)nn1 | 8 | -13 | 4282 | 5.8 | 1 | 13 | -8
CCN(CC)C(=O)c1ccc(NC(=O)Cn2nc(C)c3ccccc3c2=O)cc1 | 4 | -13 | 22310* | 2.2 | 7 | 5 | 1
COCCNC(=O)c1ccc(N2CCCCC2)c(NS(=O)(=O)c2ccc(C)cc2)c1 | x | -20 | 2221 | 17 | -5 | -12 | 3
COc1ccc(CN(C)C(C)C(=O)Nc2ccc([N+](=O)[O-])cc2Cl)cc1OC (stereo not drawn) | 4 | 1 | 2586 | 9.3 | 3 | 2 | 8
COc1ccc(S(=O)(=O)N2CCCC2C(=O)Nn2cnnc2)cc1 (stereo not drawn) | -7 | -25 | 9487 | 7.3 | 7 | 8 | 2
N=c1sccn1CC(=O)Nc1cc(S(=O)(=O)N2CCCCC2)ccc1Cl | 6 | -24 | 5192 | 4.7 | 13 | 3 | 2
Remaining list, next part.
SMILES | BJeLR viability | PrP UTR inh | Bead autofluor | Sa RN4220 lethal | Mtb hypoxia rep | Mtb hypoxia rep growth | Sa ugtP lethal
COc1ccc(OCCCc2c(C)n[nH]c2C)cc1 | 1 | -19 | 2635 | 8.5 | 3 | 8 | -3
N#Cc1c(Nc2ccccc2)c(/C=N/N=C/c2ccccc2)c[nH]c1=O | -9 | -113 | 10654 | x | x | x | x
COc1ccc2ccccc2c1C1NC(=O)NC(C)=C1[N+](=O)[O-] (stereo not drawn) | 0 | -24 | 3960 | -2.8 | -5 | -9 | -12
CCOC(=O)c1nc(S(C)(=O)=O)ncc1N1CCOCC1 | 1 | -16 | 8860 | 7.0 | 3 | 4 | 1
C=CCN(C(=O)CNC(=O)c1ccco1)C(C(=O)NC1CCCC1)c1cccs1 (stereo not drawn) | 9 | -11 | 4364 | 5.0 | 13 | 10 | -6
COc1ccc(CNCCc2ccc(Cl)cc2)c(OC)c1OC | 0 | -4 | 3157 | 0.1 | 2 | -5 | -3
Cc1ccc(-n2c(CC#N)n[nH]c2=S)c(C)c1 | 7 | -9 | 4629 | 1.3 | 12 | 13 | 3
Cc1nnsc1SCC(=O)O | 5 | -19 | 3288 | -1.1 | 4 | -1 | 9
C=CCN(C/C(=N\O)c1sc(C(=O)OCC)nc1C)c1cccc(Br)c1 | -3 | -18 | 4139 | x | x | x | x
NC(=O)NN=Cc1cc(Br)ccc1OCC(=O)NCc1ccccc1 | x | x | x | 8.1 | -2 | 0 | 12
C=CCN1CCN(C(=O)CCc2ccccc2)CC1 | -6 | -48 | 4046 | -4.2 | x | x | 11
COC(=O)c1ccccc1NC(=O)CN1CCC(C(=O)c2ccc3c(c2)OCCO3)CC1 | x | -11 | 15952 | 10 | 6 | 6 | -17
Cn1c(=O)c2c(SCC(=O)NCCc3ccccc3)nc(C3CC3)nc2n(C)c1=O | 17 | x | x | 3.5 | -1 | 2 | -9
CC(=O)O[C@]1(C(C)=O)CCC2C3CCC4=C/C(=N/OCC(=O)O)CC[C@]4(C)C3CC[C@@]21C (stereo partly drawn) | -1 | 7 | 3613 | x | x | x | x
Cc1ccc(-n2nc(C)c(C=Nn3c(C)n[nH]c3=S)c2Cl)cc1 | x | x | x | 5.3 | -10 | 2 | -8
C=CC(=C)CC(NC)c1ccccc1 (stereo not drawn) | x | -22 | 13338 | -1.5 | 1 | 10 | 1
CCOc1ccccc1N=C1SCC(C)N1C(=O)C1CCN(c2ncnc3sc(C)c(C)c23)CC1 (stereo not drawn) | x | -19 | 3739 | 5.1 | 6 | 4 | 4
Nc1n[nH]c(N)c1N=Nc1ccc(Cl)cc1Cl | -2 | -57 | 2063 | -2.5 | -1 | 5 | -1
COc1cc2c(cc1OC)C(C)N(C(=O)c1ccc(Br)o1)CC2 (stereo not drawn) | -4 | -14 | 2625 | 10 | 7 | 0 | 2
FC(F)(F)c1ccccc1/C=N/n1c(COc2ccccc2)n[nH]c1=S | 2 | -13 | 3650 | x | x | x | x

Entries of single compounds as entered above. Screens in order: BJeLR viability	PrP UTR inh	Bead autofluor	Sa RN4220 lethal	Mtb hypoxia rep	Mtb hypoxia rep growth	Sa ugtP lethal
COc1ccc(OCC(O)Cn2c(Nc3ccccc3)nc3c2c(=O)n(C)c(=O)n3C)cc1 (stereo not drawn) in the list: 15	-18	2775	5.6	9	-1	-5
O=C(O)C1(Cc2nc3ccccc3[nH]2)CCCC1 in the list: -5	14	2927	0.5	0	-3	0
O=C(NC1CCN(Cc2ccccc2)CC1)C1CCN(S(=O)(=O)c2cccc3nsnc23)CC1 in the list: -2	1	4757	-5.5	-6	-4	2
Nc1n[nH]c(N)c1N=Nc1ccc(Cl)cc1Cl in the list: -2	-57	2063	-2.5	-1	5	-1

(further entries)
SMILES | BJeLR viability | PrP UTR inh | Bead autofluor | Sa RN4220 lethal | Mtb hypoxia rep | Mtb hypoxia rep growth | Sa ugtP lethal
Cc1cccc2sc(NNC(=O)c3cc(-c4cccs4)nc4ccccc34)nc12 | -5 | -9 | 5070 | x | x | x | x
COC(=O)c1ccc2c(=O)n(CCCCCC(=O)NC(C)C)c(=O)[nH]c2c1 | 3 | -27 | 3110 | 17 | 15 | 9 | 8
Cn1nc(C(=O)Nc2ccccc2N2CCOCC2)ccc1=O | x | -25 | 9385 | 2.3 | 2 | 0 | 0
O=c1c2c(nc3cc(-c4ccccc4)[nH]n13)CCS2 | -6 | -84 | 2926 | -19 | 3 | 10 | -8
